# GCN5L2 inh – blocks human GCN5L2 histone acetyltransferase; GCN5L2 HAT assay, ThioGlo1 CoA-SH fluorescence; Potency, µM (doses to about 58.9 µM), inactives show at the top dose activity change, negative = inhibition, usual class: inhibitors; 0.21% of 390,000 active
# Target sequence (Q92830 whole entry, looked up): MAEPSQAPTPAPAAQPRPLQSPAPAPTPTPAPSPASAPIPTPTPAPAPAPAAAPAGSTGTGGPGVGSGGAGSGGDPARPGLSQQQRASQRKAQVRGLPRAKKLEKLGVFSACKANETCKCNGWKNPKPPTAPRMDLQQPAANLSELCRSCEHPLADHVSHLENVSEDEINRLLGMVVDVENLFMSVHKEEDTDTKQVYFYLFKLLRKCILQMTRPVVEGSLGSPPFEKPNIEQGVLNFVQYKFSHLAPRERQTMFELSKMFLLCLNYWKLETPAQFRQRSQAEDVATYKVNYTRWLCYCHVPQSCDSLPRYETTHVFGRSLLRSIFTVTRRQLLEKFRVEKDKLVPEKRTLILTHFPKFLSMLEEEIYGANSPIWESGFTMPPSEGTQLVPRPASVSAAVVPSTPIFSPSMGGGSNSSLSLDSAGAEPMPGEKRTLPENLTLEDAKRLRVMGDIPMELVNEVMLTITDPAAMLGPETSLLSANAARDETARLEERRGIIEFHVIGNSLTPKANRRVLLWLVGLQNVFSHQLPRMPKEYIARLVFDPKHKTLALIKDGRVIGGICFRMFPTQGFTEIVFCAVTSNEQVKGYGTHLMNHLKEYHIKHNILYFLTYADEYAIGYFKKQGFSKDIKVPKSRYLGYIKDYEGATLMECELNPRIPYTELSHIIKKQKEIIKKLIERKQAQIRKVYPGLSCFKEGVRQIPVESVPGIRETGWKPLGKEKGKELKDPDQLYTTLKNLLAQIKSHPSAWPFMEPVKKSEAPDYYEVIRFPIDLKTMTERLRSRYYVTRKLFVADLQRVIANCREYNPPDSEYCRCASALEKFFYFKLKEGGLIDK
#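 Preincubate 20nM GCN5L2 with compound 15 min, RT → add 50uM ThioGlo1 + 75uM H3(1-25) + 70uM acetyl-CoA → read fluorescence 0 and 20 min. Primary qHTS; fluorescent artifacts likely.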
# N370S GC – inhibits or activates N370S mutant glucocerebrosidase; P04062; N370S GC spleen homogenate, 4MU-glucoside fluorescence; Potency, µM (top dose mostly 59.4 µM), for inactives: at the highest dose activity change, negative = inhibition, most hits filed as inhibitors; 0.092% of 330,000 active; AID 2101;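 further: 0% = full enzyme activity and -100% = no enzyme basal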
# An asterisk follows results filed as active; ? = inconclusive; . = not tested or not shown; & = joins results of further samples. The call rests on the fitted dose curve; in most records, active means well fitted curve in the direction sought with a large enough effect; inconclusive means small, poorly fitted or top-dose-only effect, or another doubt; inactive means no such curve, though single readings can be large; an effect the other way counts as inactive or inconclusive. Unless noted, on the % scale 0 is the no-effect control and ±100 the full control effect; potency means the concentration at half of the fitted maximal effect. These rows are one share of the data, and most or all hits are left out here.
SMILES,GCN5L2 inh,N370S GC
Cc1ccc(OCC(=O)Nc2cccc3ccc(C)nc23)c(C)c1,5%,.
CCN1/C(=C\C(C)=O)Sc2ccc(OC)cc21,-6%,26%
O=[N+]([O-])c1ccc(S(=O)(=O)N2CCN(C3CCN(Cc4ccccc4)CC3)CC2)cc1,-2%,-5%
COc1ccc(OC)c(CN2CCC(CO)(CCOc3ccccc3)CC2)c1,-5%,5%
Cc1cccc(N2CC(C(=O)Nc3nnc(SCCC4OCCO4)s3)CC2=O)c1 (stereo not given),-27%,-6%
CCCCn1c(N)c(N(CCOC)C(=O)Cn2c(=O)cnc3ccccc32)c(=O)[nH]c1=O,2%,.
Cc1ccccc1NC(=O)N1CCN(c2ncccn2)CC1,-2%,6%
CCC(=O)Nc1c(-c2ccc(Cl)cc2)c(=O)c2ccccc2n1C,5%,-6%
CCC(C(=O)OCC(=O)Nc1c(C)nn(-c2ccccc2)c1C)c1ccccc1 (stereo not given),0%,-11%
O=S(=O)(Nc1cccc(C(F)(F)F)c1)c1ccc(-c2cnc(C3CC3)o2)cc1,22%,.
CCCCCCCCNC(=O)C(CCC(=O)OCc1ccccc1)NC(C)=O (stereo not given),0%,.
O=C1CC(C(=O)Nc2ccc(Br)cc2)S/C(=N\N=C\c2ccco2)N1 (stereo not given),3%,4%
CCCCC(=O)OCC(=O)Nc1ccc(SC(F)F)cc1,-22%,-4%
Cc1ccccc1OCC(=O)Nc1ccc2c(c1)n(C)c(=O)n2C,-1%,0%
Cc1cc(C)[n+](-c2ccc(F)cc2)c2[nH]c(=O)[nH]c(=O)c12,-19%,?
CNC(=O)c1ccccc1NC(=O)C1CC(=O)N(c2ccc(OC)cc2)C1 (stereo not given),1%,-2%
CNS(=O)(=O)c1cccc(C(=O)NCC(c2ccco2)N(C)C)c1 (stereo not given),-1%,-1%
C=CCn1c(-c2ccccc2)nc(=S)c2c1CCCC2,-3%,-9%
CCCCn1c(N)c(N(CCOC)C(=O)C2CCN(S(=O)(=O)c3ccccc3)CC2)c(=O)[nH]c1=O,-9%,-4%
Cc1cc(NC(=O)c2cc3nc(C4CC4)cc(C(F)(F)F)n3n2)no1,1%,6%
O=c1cc(-c2cc3ccccc3o2)c2cc(O)ccc2o1,-4%,-5%
O=C(CSc1nncc(=O)[nH]1)NCc1ccccc1,-3%,2%
O=C1CCC(C(=O)Nc2ccc(OC(F)F)cc2)N1 (stereo not given),-4%,5%
COc1ccccc1N1CCN(S(=O)(=O)CCNC(=O)C2CC2)CC1,-7%,-5%

# An excerpt from the list above, as a working copy:
SMILES,GCN5L2 inh,N370S GC
Cc1ccc(OCC(=O)Nc2cccc3ccc(C)nc23)c(C)c1,5%,.
CCN1/C(=C\C(C)=O)Sc2ccc(OC)cc21,-6%,26%
O=[N+]([O-])c1ccc(S(=O)(=O)N2CCN(C3CCN(Cc4ccccc4)CC3)CC2)cc1,-2%,-5%
COc1ccc(OC)c(CN2CCC(CO)(CCOc3ccccc3)CC2)c1,-5%,5%
Cc1cccc(N2CC(C(=O)Nc3nnc(SCCC4OCCO4)s3)CC2=O)c1 (stereo not given),-27%,-6%
CCCCn1c(N)c(N(CCOC)C(=O)Cn2c(=O)cnc3ccccc32)c(=O)[nH]c1=O,2%,.
Cc1ccccc1NC(=O)N1CCN(c2ncccn2)CC1,-2%,6%
CCC(=O)Nc1c(-c2ccc(Cl)cc2)c(=O)c2ccccc2n1C,5%,-6%
CCC(C(=O)OCC(=O)Nc1c(C)nn(-c2ccccc2)c1C)c1ccccc1 (stereo not given),0%,-11%
O=S(=O)(Nc1cccc(C(F)(F)F)c1)c1ccc(-c2cnc(C3CC3)o2)cc1,22%,.
CCCCCCCCNC(=O)C(CCC(=O)OCc1ccccc1)NC(C)=O (stereo not given),0%,.
O=C1CC(C(=O)Nc2ccc(Br)cc2)S/C(=N\N=C\c2ccco2)N1 (stereo not given),3%,4%
CCCCC(=O)OCC(=O)Nc1ccc(SC(F)F)cc1,-22%,-4%
Cc1ccccc1OCC(=O)Nc1ccc2c(c1)n(C)c(=O)n2C,-1%,0%
Cc1cc(C)[n+](-c2ccc(F)cc2)c2[nH]c(=O)[nH]c(=O)c12,-19%,?
CNC(=O)c1ccccc1NC(=O)C1CC(=O)N(c2ccc(OC)cc2)C1 (stereo not given),1%,-2%
CNS(=O)(=O)c1cccc(C(=O)NCC(c2ccco2)N(C)C)c1 (stereo not given),-1%,-1%
C=CCn1c(-c2ccccc2)nc(=S)c2c1CCCC2,-3%,-9%
CCCCn1c(N)c(N(CCOC)C(=O)C2CCN(S(=O)(=O)c3ccccc3)CC2)c(=O)[nH]c1=O,-9%,-4%
Cc1cc(NC(=O)c2cc3nc(C4CC4)cc(C(F)(F)F)n3n2)no1,1%,6%
O=c1cc(-c2cc3ccccc3o2)c2cc(O)ccc2o1,-4%,-5%
O=C(CSc1nncc(=O)[nH]1)NCc1ccccc1,-3%,2%
O=C1CCC(C(=O)Nc2ccc(OC(F)F)cc2)N1 (stereo not given),-4%,5%
COc1ccccc1N1CCN(S(=O)(=O)CCNC(=O)C2CC2)CC1,-7%,-5%

# The results go on.
SMILES,GCN5L2 inh,N370S GC
Cc1ccc(Cl)cc1N1CCN(C(=O)COc2ccc(S(=O)(=O)NC(C)C)cc2)CC1,-12%,1%
CC(=O)CC1(O)C(=O)N(Cc2ccccc2)c2ccccc21 (stereo not given),-11%,2%
COc1ccc(C2c3c(n(C)c4ccccc34)C(=O)N2CC(=O)Nc2ccccc2Cl)cc1 (stereo not given),-5%,.
CC(C)(C)OC(=O)N1CCC(C(=O)N2CCOCC2)CC1,-3%,-9%
Cc1cccc(N(C(=O)c2ccc(CN3CCOCC3)o2)C(C(=O)NC(C)(C)C)c2ccc(F)cc2)c1 (stereo not given),-6%,-12%
COC(=O)c1c(C(C)=O)c(C)n(C)c1C,-5%,2%
Cc1c(SCCO)c(=O)[nH]c2cc3c(cc12)OCO3,-3%,22%
COC(=O)c1ccc(C)c(NC(=O)CN2C(=O)c3ccccc3S2(=O)=O)c1,-18%,2%
COc1cc(/C=C2\SC(=S)N(CC(=O)Nc3ccccn3)C2=O)cc(OC)c1OC,-7%,-4%
CC(=O)Nc1ccccc1P(=O)(c1ccccc1)c1ccccc1OC(C)=O (stereo not given),0%,-9%
S=C(NC12CC3CC(CC(C3)C1)C2)N1CCOCC1,28%,6%
O=C(N[C@@H](Cc1ccccc1)C(=O)N1CCN(S(=O)(=O)c2ccccc2F)CC1)c1ccco1,4%,.
CSc1oc(-c2cccs2)nc1S(=O)(=O)c1ccc(Br)cc1,-13%,.
CCOC(=O)C1(C)NC(c2ccc(OC)c(OC)c2)C2C(=O)N(CC)C(=O)C21 (stereo not given),0%,-2%
COc1ccccc1-c1cc(C(=O)N/N=C\c2cnn(C)c2C)c2ccccc2n1,-2%,27%
CCOc1ccccc1NC(=O)Cn1nnc(C(=O)Nc2ccc(C)c(C)c2)c1N,-3%,.
CCOc1ccc(N=C2SC(C(=O)Nc3ccccc3C#N)C(N)=C2C(=O)Nc2ccc(Cl)cc2)cc1 (stereo not given),-9%,-14%
Cc1cccc(NCCNc2cccc(C)c2)c1,?,-25%
Cc1ccc2nc(N3CCN(c4cccc(C)c4C)CC3)c3nnnn3c2c1,-1%&5%,1%
O=C(N/N=C/c1ccc([N+](=O)[O-])o1)c1ccccc1-n1cccc1,-7%,-14%
CCOc1ccc(Nc2nc3ccccc3n3nnnc23)cc1,-3%,6%
CS/C(=N\S(=O)(=O)c1cccs1)Nc1ccc(Br)cc1F,3%,27%
O=S(=O)(c1ccccc1)c1nc(-c2ccco2)oc1NCCCN1CCOCC1,0%,13%
COc1ccc(N2CC(C(=O)NCCC3=CCCCC3)CC2=O)cc1 (stereo not given),-5%,-15%
COc1ccc(-c2n[nH]c(=S)n2-c2ccc(C)cc2)cc1,?,-5%
Cc1nonc1NC(=O)c1ccccc1Br,.,-31%
CC(=O)C[C@H](O)CC(=O)[C@H]1OC(=O)[C@@H](C)CCCCc2ccccc21,-2%,.
Cc1cccc(N2CCN(S(=O)(=O)c3c(C)[nH]c(=O)[nH]c3=O)CC2)c1C,-8%&-1%,13%
COC(=O)c1ccc(NC(=O)COc2ccc(S(=O)(=O)NC(C)(C)C)cc2)cc1,-4%,4%
CCOC(=O)N1CCN(C2CCCN(C(=O)c3cccc(Cl)c3)C2)CC1 (stereo not given),-1%,-12%
c1ccc(-c2cc3c(N4CCCCC4)ncnc3s2)cc1,-10%,22%
Cn1c(=O)c2c(nc(N/N=C/c3cccnc3)n2Cc2ccccc2)n(C)c1=O,-12%,-3%
COC(=O)/C=C/c1cnc2ccccc2c1,-4%,7%
CC(=O)Nc1ccc(OC(=O)COc2ccc(Br)cc2)cc1,-6%,3%
O=C1CN(C(=O)c2ccc(Cl)c([N+](=O)[O-])c2)c2ccccc2N1,-10%,0%
CC(=O)N(c1cccc(C)c1)S(=O)(=O)c1ccc(Cl)cc1,0%,-1%

# Brought forward from above: four entries; new compounds follow.
SMILES,GCN5L2 inh,N370S GC
COC(=O)/C=C/c1cnc2ccccc2c1,-4%,7%
CC(=O)Nc1ccc(OC(=O)COc2ccc(Br)cc2)cc1,-6%,3%
O=C1CN(C(=O)c2ccc(Cl)c([N+](=O)[O-])c2)c2ccccc2N1,-10%,0%
CC(=O)N(c1cccc(C)c1)S(=O)(=O)c1ccc(Cl)cc1,0%,-1%
Cc1ccc(-c2nnc(Nc3ccc(CC(N)=O)cc3)c3ccccc23)cc1S(=O)(=O)NCCO,-4%,-13%
CC(=O)C1C(c2ccc(F)cc2)NC(=O)NC1(O)C(F)(F)F (stereo not given),?,1%
COC(=O)COc1ccc(S(=O)(=O)Nc2ccc(NC(C)=O)cc2)cc1C,-12%,0%
CCOc1ccc(-c2nonc2NC(=O)c2ccccc2C)cc1,-11%,.
C/C(=N/NC(=O)c1ccc(C)s1)c1cccnc1,-7%,-13%
COC(=O)[C@]12C(=O)NC[C@H](CN1c1ccc(Cl)c(C)c1)N2C,-1%,.
CCN(CC(=O)N1CCN(Cc2ccccc2)CC1)S(=O)(=O)c1ccccc1,-1%,-13%

# Source: PubChem (National Center for Advancing Translational Sciences (NCATS))
